Yeast UUG start: alters start codon recognition fidelity in yeast; 350,000 tested, 0.13% active; S. cerevisiae UUG-firefly luciferase reporter, luminescence/redox ratio; activity score, % at 18.7 µM;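 active means replicate mean at a twofold rise or more, about +100% in these data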;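 further: firefly luciferase made from a UUG start codon reports start codon fidelity; reporter light over untreated wells divided by growth signal over untreated wells; some hits fall short of that in this replicate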
PABP polyA inh: blocks human PABP binding to poly(A) RNA; fluorescence polarization; AID 2014; inhibition, % at 35 µM; P11940; 290,000 tested, 1% active;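 active means 50% or more with normal probe brightness, or confirmed in later tests; about a fifth of its hits are not listed in these tables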;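 further: calls also rest on retests at 20 µM and on dose response follow-up; controls were probe without protein and protein plus probe with vehicle; some compounds called inactive have numbers as strong as hits; many hits fall short of the cut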
eIF4H inh: inhibitors of RNA binding by human eIF4H | Q15056 | eIF4H fluorescence polarization binding assay | inhibition, % at 35 µM | 290,000 tested, 0.94% active | AID 2012;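 active means 50% or more with normal probe brightness, or confirmed in later tests; about a fifth of its hits are not listed in these tables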;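 further: calls also rest on retests at 20 µM and on dose response follow-up; 0% = protein and probe with vehicle and 100% = probe without protein; strong numbers were not always called active; many hits fall short of the cut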
Rce1 inhib: blocks yeast Ras-converting enzyme; yeast membranes, quenched prenylated peptide cleavage fluorescence; calls only; 290,000 tested, 0.27% active; AID 2563; Q03530;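 active means fall in fluorescence gain of 50% or more versus controls, with final raw signal at or below 3038400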;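 further: plate controls were neutral control wells for no effect and wells lacking membranes for full effect; tested at 10 µM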
Target sequence (Q03530 whole entry, looked up): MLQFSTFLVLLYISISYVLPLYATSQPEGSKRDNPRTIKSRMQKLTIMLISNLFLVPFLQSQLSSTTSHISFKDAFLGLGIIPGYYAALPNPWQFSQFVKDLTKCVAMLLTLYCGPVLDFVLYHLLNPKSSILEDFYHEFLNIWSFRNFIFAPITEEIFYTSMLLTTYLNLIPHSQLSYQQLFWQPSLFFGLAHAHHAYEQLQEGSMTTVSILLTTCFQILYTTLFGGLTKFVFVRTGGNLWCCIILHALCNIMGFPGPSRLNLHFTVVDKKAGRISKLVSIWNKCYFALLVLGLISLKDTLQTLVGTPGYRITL
MT1-MMP act inh: inhibitors of human MT1-MMP activation; P50281; AID 651647; GFP/RFP ratio change, % at 20 µM; HT1080 RFP-PRO-GFP cells, GFP/RFP ratio fluorescence, overnight; percent of plate control window, DMSO zero; 360,000 tested, 0.061% active;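 active means GFP/RFP ratio change of at least 30% with cell ATP level not reduced by more than half and red fluorescence within 50% of control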; further: strong numbers were not always called active
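Assay system – RFP-PRO-GFP reporter HT1080 cells · Compound dosing – single dose of 20 µM compound, 1% DMSO final · Incubation – overnight compound exposure at 37 °C · Measure – GFP/RFP fluorescence ratio · Benchmarks – DMSO wells and RFP-L50D-GFP cells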
CSC inhib: cancer stem cell inhibition; 300,000 tested, 1.1% active; inhibition, % at 7.5 µM; cancer stem cell-like cells viability, luminescence;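 active means mean at 75% or more and at least half the replicates too; tested in HMLE shEcad cells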;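 further: 0% = median of negative and 100% = median of positive control wells; the first replicate is given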
HIV Env fusion: HIV envelope-mediated fusion inhibition | HeLa-JRFL Env/CEM21 cell fusion, luciferase | inhibition, % at 12.3 µM | 360,000 tested, 1.1% active | AID 651610;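 active means mean replicate inhibition score of at least 50 and every replicate individually at or above 50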;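 further: 0% = plate neutral controls and 100% = maraviroc near 300 nM; one replicate is shown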
MT1-MMP act inh RFP: also measured in MT1-MMP act inh; calls as there; RFP signal change, %; measured here: RFP expression control read;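 0 = vehicle wells; hits needed this value within 50% of zero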
Starred values were filed as active, the others as inactive; & = joins results of further samples.

Results for OC(COCc1cccs1)CN1CCN(c2cccc(C(F)(F)F)c2)CC1 (configuration not stated) ?
Yeast UUG start: 7; PABP polyA inh: -7; eIF4H inh: 4; Rce1 inhib: inactive; MT1-MMP act inh: -1; CSC inhib: 30; MT1-MMP act inh RFP: 3

Results for O=c1c2ccccc2c(-c2ccccc2)nn1Cc1c(Cl)cccc1Cl ?
Yeast UUG start: -5; PABP polyA inh: 2; eIF4H inh: 2; Rce1 inhib: inactive; MT1-MMP act inh: -14; CSC inhib: 36; HIV Env fusion: 15; MT1-MMP act inh RFP: -9

What do the screens show for `C/C=C/C(=O)Nc1cccc(C2=NOC3(C2)C[C@@H](C(N)=O)N(C(=O)C(c2ccccc2)c2ccccc2)C3)c1` (some centres not stated)?
Yeast UUG start: 14; PABP polyA inh: -2; eIF4H inh: -8; Rce1 inhib: inactive; MT1-MMP act inh: 1; CSC inhib: 2; HIV Env fusion: -23; MT1-MMP act inh RFP: -1

How did Cc1ccc(S(=O)(=O)Nc2cccc3c2O[C@@H](CN(C)C(=O)Nc2ccc4c(c2)OCO4)[C@H](C)CN([C@@H](C)CO)C3=O)cc1 do in these assays?
Yeast UUG start: 14&-27; MT1-MMP act inh: -2; HIV Env fusion: 1; MT1-MMP act inh RFP: -1

What do the screens show for `CCSc1nnc(-c2cccs2)o1`?
PABP polyA inh: 2; eIF4H inh: 0; Rce1 inhib: inactive; MT1-MMP act inh: -1; HIV Env fusion: -63; MT1-MMP act inh RFP: -1

How did COc1ccc(S(=O)(=O)N/N=C(/C)c2ccco2)cc1 do in these assays?
Yeast UUG start: -16; PABP polyA inh: 1; eIF4H inh: 2; Rce1 inhib: inactive; MT1-MMP act inh: -3; CSC inhib: 1; HIV Env fusion: -1; MT1-MMP act inh RFP: -2

How did Cc1ccc(S(=O)(=O)c2nnn3c2nc(N2CCN(c4ccccn4)CC2)c2ccccc23)cc1C do in these assays?
Yeast UUG start: -15; PABP polyA inh: 12; eIF4H inh: -1; Rce1 inhib: inactive; MT1-MMP act inh: -1; CSC inhib: -8; HIV Env fusion: 7; MT1-MMP act inh RFP: -2

What do the screens show for `COc1ccc2oc(=N)c(C(=O)Nc3ccc(C)cc3)cc2c1`?
Yeast UUG start: -9; PABP polyA inh: 0; eIF4H inh: -4; Rce1 inhib: inactive; MT1-MMP act inh: 4; CSC inhib: -2; HIV Env fusion: inactive; MT1-MMP act inh RFP: 0

What do the screens show for `CCCCN1C(=O)/C(=C2\SC(N3CCOCC3)=NC2=O)c2ccccc21`?
Yeast UUG start: -8; PABP polyA inh: -6; eIF4H inh: -7; Rce1 inhib: inactive; MT1-MMP act inh: 5; CSC inhib: 1; HIV Env fusion: -8; MT1-MMP act inh RFP: 0

Results for COc1ccc(C2(CNC(=O)c3ccc(Br)o3)CCOCC2)cc1 ?
Yeast UUG start: -5; PABP polyA inh: -2; eIF4H inh: -4; Rce1 inhib: inactive; MT1-MMP act inh: -1; CSC inhib: 1; MT1-MMP act inh RFP: -1

Results for NC(=O)N1N=C2/C(=C/c3ccccc3)CCCC2C1c1ccccc1 (configuration not stated) ?
Yeast UUG start: -4; PABP polyA inh: -14; eIF4H inh: -15; Rce1 inhib: active; MT1-MMP act inh: 3; CSC inhib: -6; HIV Env fusion: 9; MT1-MMP act inh RFP: -2

Results for Nc1nc(C(=O)N2CCOCC2)nn1S(=O)(=O)c1ccc(Cl)cc1 ?
Yeast UUG start: -21; PABP polyA inh: 2; eIF4H inh: 0; Rce1 inhib: inactive; MT1-MMP act inh: 4; CSC inhib: -4; HIV Env fusion: -56; MT1-MMP act inh RFP: 6

Results for CC(C)C(=O)Nc1ncc2c(n1)CC(c1cccs1)CC2=O (configuration not stated) ?
Yeast UUG start: 4; PABP polyA inh: 6; eIF4H inh: 7; Rce1 inhib: inactive; MT1-MMP act inh: 1; CSC inhib: -12; MT1-MMP act inh RFP: 1

Results for O=C(CCCNS(=O)(=O)c1cccs1)N1CCc2ccccc2C1 ?
Yeast UUG start: -7; PABP polyA inh: -8; eIF4H inh: 6; Rce1 inhib: inactive; MT1-MMP act inh: -1; CSC inhib: -14; HIV Env fusion: -43; MT1-MMP act inh RFP: 2

How did O=C(OCc1cccc(F)c1)c1ccc2c(=O)n3c(nc2c1)CCC3 do in these assays?
PABP polyA inh: 2; eIF4H inh: -8; Rce1 inhib: inactive; MT1-MMP act inh: -4; CSC inhib: -5; HIV Env fusion: -16; MT1-MMP act inh RFP: -1

What do the screens show for `CC1CCCC(C)N1C(=O)COC(=O)c1cccs1` (configuration not stated)?
Yeast UUG start: 1; MT1-MMP act inh: 3; CSC inhib: 2; MT1-MMP act inh RFP: 5

What do the screens show for `CC(C)c1ccccc1`?
Yeast UUG start: -11; MT1-MMP act inh: 1; CSC inhib: -12; MT1-MMP act inh RFP: 5

How did O=C(NNC(=O)c1ccccc1-c1ccccc1C(=O)O)c1cccc([N+](=O)[O-])c1 do in these assays?
PABP polyA inh: -17; eIF4H inh: -7; Rce1 inhib: inactive; MT1-MMP act inh: 6; CSC inhib: -20; HIV Env fusion: 25; MT1-MMP act inh RFP: 6

Results for COC(=O)[C@@H](Cc1c[nH]c2ccccc12)NC(=O)CCC(=O)c1ccc(Br)cc1 ?
Yeast UUG start: 0; PABP polyA inh: 0; eIF4H inh: -11; Rce1 inhib: inactive; MT1-MMP act inh: -4; CSC inhib: 1; HIV Env fusion: 1; MT1-MMP act inh RFP: 1

What do the screens show for `COc1ccccc1C(=O)NNC(=O)c1csc(N2CCOCC2)n1`?
Yeast UUG start: -6; Rce1 inhib: inactive; MT1-MMP act inh: -2; CSC inhib: 12; HIV Env fusion: -9; MT1-MMP act inh RFP: 2

Results for O=Cc1cc([N+](=O)[O-])ccc1N1CCOCC1 ?
PABP polyA inh: 4; eIF4H inh: 8; Rce1 inhib: inactive; MT1-MMP act inh: -2; CSC inhib: -11; HIV Env fusion: -14; MT1-MMP act inh RFP: -2

What do the screens show for `O=C(CSc1n[nH]c(-c2ccncc2)n1)Nc1ccccc1Cl`?
Yeast UUG start: -5; Rce1 inhib: inactive; MT1-MMP act inh: 0; CSC inhib: 14; HIV Env fusion: -4; MT1-MMP act inh RFP: 2

How did O=C(COc1cccc(C(F)(F)F)c1)NNC(=O)c1ccc(=O)[nH]c1 do in these assays?
Yeast UUG start: -9; MT1-MMP act inh: 1; CSC inhib: 6; MT1-MMP act inh RFP: 0

Results for COc1cccc(C(c2sc3ncnn3c2O)N2CCc3ccccc3C2)c1 (configuration not stated) ?
Yeast UUG start: -20; PABP polyA inh: -13; eIF4H inh: 6; Rce1 inhib: inactive; MT1-MMP act inh: 1; CSC inhib: -3; HIV Env fusion: -46; MT1-MMP act inh RFP: 2

What do the screens show for `O=C1CCC[C@@H]2Cc3nc4ccc(Cl)cc4cc3[C@@H]3CCN1[C@H]23`?
Yeast UUG start: -8; MT1-MMP act inh: 7; HIV Env fusion: 0; MT1-MMP act inh RFP: 0

What do the screens show for `CC1=CC[C@@]23CCCN2C(=O)CCC[C@H]3C1`?
Yeast UUG start: -1; MT1-MMP act inh: 7; HIV Env fusion: -125; MT1-MMP act inh RFP: 4

What do the screens show for `COc1ccc(C(=N/O)/C(=N/O)c2ccc(OC)cc2)cc1`?
PABP polyA inh: 5; eIF4H inh: -1; Rce1 inhib: inactive; MT1-MMP act inh: -4; CSC inhib: -12; MT1-MMP act inh RFP: 3

Results for COc1cccc(CNC(=O)C2CCCN(S(C)(=O)=O)C2)c1 (configuration not stated) ?
Yeast UUG start: -10; PABP polyA inh: -10; eIF4H inh: -5; Rce1 inhib: inactive; MT1-MMP act inh: 3; CSC inhib: -3; HIV Env fusion: -14; MT1-MMP act inh RFP: 3

What do the screens show for `Cn1c(C=O)c(C#CC(C)(C)O)c2ccccc21`?
Yeast UUG start: 1; MT1-MMP act inh: 3; CSC inhib: -2; HIV Env fusion: 40; MT1-MMP act inh RFP: 6

Results for COc1cc(-c2n[nH]c(=S)n2Cc2ccccc2)cc(OC)c1OC ?
Yeast UUG start: -19; PABP polyA inh: 6; eIF4H inh: 12; Rce1 inhib: inactive; MT1-MMP act inh: 5; CSC inhib: -13; HIV Env fusion: 8; MT1-MMP act inh RFP: 1

What do the screens show for `O=C(c1ccc(N2CCCC2)c([N+](=O)[O-])c1)N1CCN(S(=O)(=O)c2ccccc2)CC1`?
Yeast UUG start: 11; MT1-MMP act inh: 1; HIV Env fusion: -9; MT1-MMP act inh RFP: -2

Results for CCCCN(CCCC)C(=O)c1cc(Cl)ccc1[N+](=O)[O-] ?
Yeast UUG start: 9; PABP polyA inh: -4; eIF4H inh: 2; Rce1 inhib: inactive; MT1-MMP act inh: 5; CSC inhib: -3; HIV Env fusion: 39; MT1-MMP act inh RFP: 3

How did COCCN(CCOC)C(=O)c1ccc(NS(=O)(=O)c2ccc3c(c2)OCCO3)cc1 do in these assays?
Yeast UUG start: -9; PABP polyA inh: 0; eIF4H inh: -6; MT1-MMP act inh: 0; CSC inhib: -4; HIV Env fusion: -8; MT1-MMP act inh RFP: 2

How did CN(C)c1ccc(C2CC(=O)NC3=C2C(=O)CC(C)(C)C3)cc1 (configuration not stated) do in these assays?
Yeast UUG start: -4; PABP polyA inh: 17; eIF4H inh: -2; MT1-MMP act inh: -5; CSC inhib: -7; MT1-MMP act inh RFP: 2

Results for Cc1ccnc2nc(C(=O)OCC(=O)N(Cc3ccccc3)C(C)(C)C)nn12 ?
Yeast UUG start: -18; MT1-MMP act inh: 9; CSC inhib: -1; HIV Env fusion: 5; MT1-MMP act inh RFP: -1

How did O=C(c1ccc(N2CCN(CCO)CC2)nc1)N1CCOCC1 do in these assays?
PABP polyA inh: 2; eIF4H inh: -1; Rce1 inhib: inactive; MT1-MMP act inh: 3; CSC inhib: 5; HIV Env fusion: 1; MT1-MMP act inh RFP: 4

Results for Cn1c(=O)c([N+](=O)[O-])c(NCc2ccc3c(c2)OCO3)c2ccccc21 ?
Yeast UUG start: -2; PABP polyA inh: 3; eIF4H inh: 1; Rce1 inhib: inactive; MT1-MMP act inh: 2; CSC inhib: -20; HIV Env fusion: 7; MT1-MMP act inh RFP: -3

Quoted from above, six compounds:
What do the screens show for `O=C1CCC[C@@H]2Cc3nc4ccc(Cl)cc4cc3[C@@H]3CCN1[C@H]23`?
Yeast UUG start: -8; MT1-MMP act inh: 7; HIV Env fusion: 0; MT1-MMP act inh RFP: 0

What do the screens show for `CC1=CC[C@@]23CCCN2C(=O)CCC[C@H]3C1`?
Yeast UUG start: -1; MT1-MMP act inh: 7; HIV Env fusion: -125; MT1-MMP act inh RFP: 4

What do the screens show for `COc1ccc(C(=N/O)/C(=N/O)c2ccc(OC)cc2)cc1`?
PABP polyA inh: 5; eIF4H inh: -1; Rce1 inhib: inactive; MT1-MMP act inh: -4; CSC inhib: -12; MT1-MMP act inh RFP: 3

Results for COc1cccc(CNC(=O)C2CCCN(S(C)(=O)=O)C2)c1 (configuration not stated) ?
Yeast UUG start: -10; PABP polyA inh: -10; eIF4H inh: -5; Rce1 inhib: inactive; MT1-MMP act inh: 3; CSC inhib: -3; HIV Env fusion: -14; MT1-MMP act inh RFP: 3

What do the screens show for `Cn1c(C=O)c(C#CC(C)(C)O)c2ccccc21`?
Yeast UUG start: 1; MT1-MMP act inh: 3; CSC inhib: -2; HIV Env fusion: 40; MT1-MMP act inh RFP: 6

Results for COc1cc(-c2n[nH]c(=S)n2Cc2ccccc2)cc(OC)c1OC ?
Yeast UUG start: -19; PABP polyA inh: 6; eIF4H inh: 12; Rce1 inhib: inactive; MT1-MMP act inh: 5; CSC inhib: -13; HIV Env fusion: 8; MT1-MMP act inh RFP: 1
